# Assay outcomes (PubChem)
# Ecoli rRNA inh: reduced GFP signal of wild-type E. coli, primary screen, bacterial rRNA inhibitor project, GFP/RFP fluorescence, OD600, single point; E. coli WT GFP vs humanized-ribosome RFP mutants, 24 h; hits give low values; DMSO median 0, no signal -100; GFP signal change (wild-type ribosome), % (no concentration beside the values); 1.6% of 350,000 active;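 active = significant combined selectivity score with lowered wild-type GFP, culture density cut under 30%, mutant RFP and density less affected; inactive = any of these conditions unmet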; note: one replicate is shown; some compounds called inactive have numbers as strong as hits
# LANA-H2A inh: blockers of LANA interaction with H2A/H2B – biochemical, FP readout, HTS, primary screen; cell-free LANA-H2A/H2B peptide, fluorescence polarization; inhibition, % (test concentration not listed); 0.6% of 320,000 active; AID 2629, 2010; in the data active = inhibition mostly above about 10%, no sharp cut-off; inactive = mostly below about 6.7%;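 note: stock transfer was 7.5 nL into about 10 µL; 0% = median of vehicle wells and 100% = median of positive control wells; one replicate is shown; the record names a cut of 25% in any replicate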
# Target sequence (Q9QR71 whole entry, looked up): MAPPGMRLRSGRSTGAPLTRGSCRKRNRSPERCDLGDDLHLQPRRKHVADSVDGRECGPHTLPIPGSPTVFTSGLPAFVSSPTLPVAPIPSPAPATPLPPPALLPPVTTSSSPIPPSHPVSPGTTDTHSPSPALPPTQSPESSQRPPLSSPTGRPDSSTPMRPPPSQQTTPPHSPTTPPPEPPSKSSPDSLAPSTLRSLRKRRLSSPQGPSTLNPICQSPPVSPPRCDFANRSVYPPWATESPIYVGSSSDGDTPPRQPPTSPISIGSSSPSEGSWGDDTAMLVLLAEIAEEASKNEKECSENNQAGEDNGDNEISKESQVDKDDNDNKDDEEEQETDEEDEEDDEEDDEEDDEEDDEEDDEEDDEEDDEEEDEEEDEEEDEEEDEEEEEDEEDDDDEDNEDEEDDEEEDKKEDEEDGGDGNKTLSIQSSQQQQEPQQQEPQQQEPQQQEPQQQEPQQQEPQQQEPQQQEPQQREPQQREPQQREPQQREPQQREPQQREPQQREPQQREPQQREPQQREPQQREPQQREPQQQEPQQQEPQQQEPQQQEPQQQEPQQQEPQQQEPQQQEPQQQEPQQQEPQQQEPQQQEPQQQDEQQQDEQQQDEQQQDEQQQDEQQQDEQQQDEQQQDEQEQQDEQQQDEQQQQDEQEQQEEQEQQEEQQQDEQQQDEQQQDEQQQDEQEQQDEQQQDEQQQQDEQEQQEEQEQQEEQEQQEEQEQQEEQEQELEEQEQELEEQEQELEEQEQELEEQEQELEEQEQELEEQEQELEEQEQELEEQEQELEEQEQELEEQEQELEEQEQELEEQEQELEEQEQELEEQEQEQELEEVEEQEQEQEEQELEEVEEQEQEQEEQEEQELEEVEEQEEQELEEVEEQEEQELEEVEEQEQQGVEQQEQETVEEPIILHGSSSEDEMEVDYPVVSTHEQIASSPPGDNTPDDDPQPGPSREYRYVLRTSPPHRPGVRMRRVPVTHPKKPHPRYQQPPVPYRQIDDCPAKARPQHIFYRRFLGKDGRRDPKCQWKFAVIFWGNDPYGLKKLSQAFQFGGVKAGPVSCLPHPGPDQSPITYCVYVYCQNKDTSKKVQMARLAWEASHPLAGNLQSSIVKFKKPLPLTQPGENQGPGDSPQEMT
# T cruzi inh: inhibitors of intracellular T. cruzi growth, primary screen, luminescence, NIH3T3 host cells; T. cruzi beta-gal in NIH3T3, 90 h; inhibition, % (no concentration beside the values); 1.4% of 300,000 active;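 active = mean inhibition across valid replicates above about 55%, limit read from the data; inconclusive = mean below that limit but half or more replicates reach it; inactive = mean below it, under half of replicates reach it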;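 note: signal also drops with host cell toxicity which is not excluded here; 0% = plate median of DMSO wells and 100% = zero luminescence signal; higher percent means less beta-gal luminescence so fewer parasites; stock transfer was 50 nL into about 50 µL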
# Bfl-1 A1 inh: caspase 3/7 activation in MEF A1-2A-BIM cells, primary screen, A1 inhibitor project, cell-based, luminescence, HTS. Caspase-Glo 3/7 luminescence, 3 h; percent of clofoctol response, vehicle zero. caspase activation, % (no concentration beside the values). 0.066% of 330,000 active. AID 2462, 2010;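 active = over half of replicate activation scores above 10%, or exactly half above 10 with the replicate mean above 10; inconclusive = replicate mean below 10 yet half the replicates above 10; inactive = over half of replicates below 10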;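 note: wells of about 30 µL received 50 nL stock; many hits fall short of the cut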
# Calb FLC: C. albicans growth inhibition with fluconazole, primary screen, CaCi-2 strain, Alamar Blue fluorescence | C. albicans CaCi-2 (fluconazole-resistant clinical isolate) + fluconazole, 48 h | 0.57% of 300,000 active | growth inhibition, % (concentration not given with the values);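 active = most replicates above 75%; inconclusive = exactly half above 75%; inactive = most below 75%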;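 note: all wells also contain fluconazole at 8 µg/ml as a sub-toxic cotreatment; 0% = median of DMSO wells and 100% = median of geldanamycin control wells; wells of about 8 µL received 7.5 nL stock; the first replicate is given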
# ALR H2O2 inh: inhibitors of human ALR sulfhydryl oxidase, primary screen, biochemical, H2O2 detection, HRP-luminol luminescence, single point. FAD-linked sulfhydryl oxidase ALR (Homo sapiens), P55789. purified ALR, DTT oxidation. inhibition, % (concentration not given with the values). 3.8% of 290,000 active;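 active = mean and each replicate at 75% or more; inconclusive = only one of the two met; inactive = neither met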;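 note: stock transfer was 7.5 nL into about 7.5 µL; 0% = neutral wells and 100% = wells with inactivated enzyme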
# Beta2AR agonist: beta2AR agonists driving receptor internalization, primary screen, cell-based, FAP fluorogen, flow cytometry. Beta-2 adrenergic receptor (Homo sapiens), P07550. Am2.2-beta2AR cells; reference of the scale not given here. 0.43% of 340,000 active. response, % (concentration not given with the values). AID 504454, 2011;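 active = response above a set limit, near 3 SD of response in nonfluorescent compounds, cut at about 42% in these data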;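 note: stock transfer was 100 nL into about 11 µL; a reference agonist was the positive control; negative values mostly stem from fluorescent compounds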
# Beta apoptosis: inhibitors of cytokine-induced beta cell apoptosis, primary screen, luminescence. INS-1E cytokine-induced death, ATP luminescence, 48 h; percent of positive-control rescue, neutral wells zero. protection from apoptosis, % (concentration not given with the values). 0.8% of 300,000 active;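 active = all replicates at 75% or more, or half of them and the mean; inconclusive = half reach 75% but not the mean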;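 note: 0% = cytokine-treated negative control wells and 100% = positive control rescue; higher means more ATP so stronger rescue from cytokine killing; wells of about 40 µL received 100 nL stock; the first replicate is given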
# Ecoli rRNA inh OD600: second read-out of Ecoli rRNA inh, no call of its own (marks repeat the call); OD600 change, %; measured here: OD600 growth;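 optical density of the mix in the first replicate; 0 = DMSO median and -100 = no signal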
# Ecoli rRNA inh RFP: further read-out of Ecoli rRNA inh, marked with its call; RFP signal change, %; measured here: RFP humanized mutant strains;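 first replicate; 0 = DMSO median and -100 = no signal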
# The depositor's hits bear a star; ? = inconclusive; . = no result given. A portion of the library (hit frequency here may not be typical).
item	SMILES	Ecoli rRNA inh	Ecoli rRNA inh OD600	Ecoli rRNA inh RFP	LANA-H2A inh	T cruzi inh	Bfl-1 A1 inh	Calb FLC	ALR H2O2 inh	Beta2AR agonist	Beta apoptosis
1	CCNC(=S)N(CCc1c(C)[nH]c2ccc(F)cc12)Cc1cccnc1	-27*	-21*	-0.6*	0.8	39	0.2	.	?	-1	1
2	CCOC(=O)c1cccc(S(=O)(=O)N2CCCC2)c1	.	.	.	-7.0	-13	-2.2	-16	-2	3	.
3	COC(=O)c1cccc(Cn2c(Cl)c(/C=N/Nc3ccccc3C)sc2=O)c1	.	.	.	.	50	-2.7	-6	1	7	-4
4	Cc1ccc(C(=O)Nc2cccc(-c3cn4ccccc4n3)c2)cc1	-29*	-15*	-3.5*	-1.4	1	0.5	94*	33	-1	2
5	COC(=O)c1cc(NC(=O)C2COc3ccccc3O2)cc(C(=O)OC)c1 (centres undefined)	.	.	.	-2.6	18	0.1	20	-5	-5	-1
6	CN(C)c1cccc2c1c(NS(=O)(=O)c1cn(C)cn1)nn2C	10	11	4.4	-4.0	6	0.0	18	-5	1	1
7	COc1ccc(-c2[nH]c(-c3cccc(OC)c3)nc2SCC(=O)NC2CCCC2)cc1	6	-34	9.7	3.6	1	-1.1	-1	29	6	23
8	CN(C(=O)Cn1c(=O)oc2cc(S(=O)(=O)N3CCCC3)ccc21)C1CCCCC1	15	10	-3.0	2.6	11	0.7	7	-32	-8	0
9	Cc1ccc(CNc2nc3ccccc3n2C)o1	0	5	0.8	-0.7	0	-2.3	2	.	3	-1
10	Cc1cccc(NC(=O)CSc2nnc(-c3ccccc3)n2N)c1	.	.	.	1.3	0	-0.1	-3	-3	-10	-1
11	CCC(Sc1nc(N)cc(=O)[nH]1)C(=O)Nc1cc(C)on1 (centres undefined)	6	2	-2.6	-2.5	-8	0.2	-3	-8	7	-5
12	COC(=O)c1ccc(Cn2nc([N+](=O)[O-])c(Br)c2C)cc1	-10	9	0.0	2.4	25	0.7	-3	-6	4	-13
13	COc1ccc(S(=O)(=O)NC2CC(C)(C)NC(C)(C)C2)c2ccccc12	15	21	2.1	-5.1	-3	-0.1	5	-7	8	1
14	CO/N=C/C(=N\Nc1cc(OC)cc(OC)c1)C(=O)c1ccccc1	13	8	0.1	3.7	53	0.9	-8	13	-9	7
15	COCCOC(=O)C1=C(C)NC(=O)NC1c1ccc(-c2ccc(F)cc2)o1 (centres undefined)	2	-14	6.9	-0.2	-8	0.7	3	3	-8	1
16	COCCNC(=O)c1ccc2c(c1)C(=O)c1ccccc1-2	-16	-3	-0.6	1.6	5	-0.4	-6	-12	1	3
17	COCCn1c(SCC(=O)c2c(N)n(C3CC3)c(=O)[nH]c2=O)nc2ccccc21	0	7	0.6	2.3	.	1.3	.	-4	-13	-2
18	COC(=O)CCN(C(C)=O)c1ccc(N)cc1	.	.	.	2.5	-30	0.6	-3	-24	0	-3
19	CC(=O)c1ccc(S(=O)(=O)Oc2ccc(-c3ccc(C(=O)O)cc3)cc2)cc1	-8	-24	-6.8	9.8	-13	-0.4	-7	-2	-1	-10
20	COc1ccccc1S(=O)(=O)N1CCC(C(=O)O)(c2ccccc2)CC1	5	8	-3.1	7.9	1	0.7	0	.	-3	4
21	Cc1nc(Cl)cc(N/N=C/c2ccccc2)n1	0	3	1.7	-1.0	-20	-1.1	10	7	3	0
22	COc1ccc(C(=O)Nc2nnc(CC(=O)N/N=C/c3ccc(O)cc3O)s2)cc1	3	12	-1.9	10	-17	0.3	36	-11	6	-3
23	FC(F)Oc1ccc(-n2cc(-c3ccccc3)[n+]3c2CCCCC3)cc1	-28*	-1.7*	7.4*	-5.2	17	0.8	-13	-5	0	11
24	CN(C)C1(CNC(=S)Nc2ccccc2C(F)(F)F)CCCCC1	11	5	1.0	2.2	.	-0.2	-11	.	0	-4
25	CCOC(=O)c1ccc(NC(=S)N2CCN(CCN=CC3=C(O)CC(C)(C)CC3=O)CC2)cc1	5	4	-0.2	2.7	0	0.6	?	0	-6	-6
26	Cc1ccc(C(=O)NCC(=O)OCN2C(=O)c3ccccc3C2=O)cc1C	-1	7	-0.5	-0.4	.	0.9	.	53	3	1
27	Cc1ccc(N(CC(=O)NCc2ccccn2)S(=O)(=O)c2ccccc2)cc1C	-7	-20	0.1	3.9	0	0.1	-1	-4	-11	0
28	Cc1ccc(NC(=O)c2ccc(Nc3c([N+](=O)[O-])cc([N+](=O)[O-])cc3[N+](=O)[O-])cc2)cc1	1	-5	8.9	-2.9	59*	1.9	9	-31	14	67
29	CC(/C=N/NC(=O)c1nnn(-c2nonc2N)c1CN1CCCCC1)=C\c1ccccc1	5	7	3.1	-2.9	20	-0.1	29	-3	3	15
30	CCN(CC)S(=O)(=O)c1ccc(F)c(C(=O)OC2CC(C)OC2=O)c1 (centres undefined)	8	15	-1.5	0.4	-15	2.2	-13	-13	0	-5
31	O=C(c1ccco1)N1CCN(c2ccc([N+](=O)[O-])c(N3CCOCC3)c2)CC1	-6	-5	-1.9	-1.3	3	0.3	-17	-9	-2	5
32	O=C(O)c1ccccc1NC1CCCCC1NS(=O)(=O)c1ccccc1 (centres undefined)	-17	-29	-3.1	.	-6	.	-5	.	0	.
33	CN(C)c1ccc(/C=N/NC(=O)c2ccccc2)cc1	7	8	0.1	-4.1	-10	-8.5	8	.	-1	8
34	CS(=O)(=O)c1cccc(-c2csc(N3CCC(C(N)=O)CC3)n2)c1	13	13	3.0	7.5	.	-0.1	.	-10	5	-4
35	CC(Cl)C(=O)Nc1ncc(C(F)(F)F)cc1Cl (centres undefined)	.	.	.	-3.2	-10	0.2	-22	-1	-1	-8
36	CCN1CCN(Cc2c(O)ccc3c(=O)c(-c4ccc(OC)c(OC)c4)c(C(F)(F)F)oc23)CC1	.	.	.	-2.9	2	0.3	-8	-3	3	2
37	O=c1[nH]cc(N(CCO)CCO)c(=O)[nH]1	13	5	5.1	-1.2	-3	-0.6	-7	-6	-6	-3
38	Cc1ccc2nc(N(CCCN(C)C)C(=O)CN3C(=O)c4ccccc4C3=O)sc2c1	12	6	5.0	0.6	61*	-0.4	0	.	-3	2
39	Oc1c(C(c2cccs2)N2CCOCC2)sc2ncnn12 (centres undefined)	1	11	-2.2	0.1	-7	0.1	4	-5	4	1
40	Cc1ccc(CC(=O)Nc2ccc(S(=O)(=O)N3CCOCC3)cc2)cc1	-3	2	5.3	-3.9	1	0.4	4	11	4	-1
41	COc1cc(NC(=O)C/C(C)=N/NC(=O)C(=O)NC2CCCCC2)c(OC)cc1Cl	2	1	2.4	-2.8	-9	0.4	-11	8	0	-9
42	COc1cccc(NC(=O)CSc2nnc(-c3cccs3)n2C)c1	.	.	.	4.7	2	0.4	-1	-5	-14	0
43	O=C(COc1cc2oc(=O)c3c(c2cc1Cl)CCC3)Nc1ccc(CN2CCOCC2)cc1	-4	-10	0.7	2.6	-3	-0.2	9	-2	42*	1
44	COc1ccc(-c2nc(SCC(=O)NC3CCCC3)c(-c3ccc(OC)cc3)[nH]2)cc1	-12	-11	0.5	-4.1	4	-0.4	-16	51	6	-5
45	O=[N+]([O-])/C=C/c1cc2ccccc2[nH]1	-5	-5	6.2	3.1	2	0.7	.	39	19	1
46	COc1ccc(/C=C/c2nc3ccccc3n2C)cc1	-16	-12	-9.9	-5.2	10	-10.0	1	35	-11	106*
47	O=C(c1ccc(Cl)s1)N1CCN(S(=O)(=O)c2ccc(Cl)cc2)CC1	3	3	-9.0	0.5	.	-0.1	.	-2	-8	-7
48	CCC(C(=O)O)N1C(=O)C2CCCCC2C1=O (centres undefined)	15	7	-4.0	3.9	-8	-0.1	1	0	-1	-1
49	CCN1CCN(C(=O)CN(Cc2ccccc2)S(C)(=O)=O)CC1	.	.	.	0.3	-3	-1.0	-6	.	0	-1
50	COc1ccc(NC(=O)C(CC(C)C)NC(=O)C2CCC(C)CC2)cc1 (centres undefined)	7	15	1.5	-2.8	4	0.5	-21	-6	2	-1
51	O=C(Nc1nc2ccc(F)cc2s1)C1=NN(c2ccccc2)C(=O)CC1	-1	-2	-2.2	-4.5	-3	-0.9	6	?	5	5
52	CCOC(=O)CC(NC(=O)c1cccs1)c1ccc(C)cc1 (centres undefined)	-5	-19	-3.2	4.8	-11	0.3	9	-7	-5	1
53	COc1ccccc1NC(=S)N(CCCN(C)C)Cc1cc2cc3c(cc2[nH]c1=O)OCO3	12	3	7.9	-1.3	-2	0.3	-12	-22	9	0
54	Cc1nc([N+](=O)[O-])c(SCC(O)CCl)n1Cc1ccc(Cl)cc1 (centres undefined)	-59	-77	-21	1.4	16	0.1	2	5	3	-2
55	O=C(Nc1ccc(N2CCCC2)cc1)c1cccc(-c2cc3ccccc3oc2=O)c1	8	9	-2.7	1.7	20	-0.4	-7	.	57*	0
56	Cc1cc(NCCCn2ccnc2)n2nc(-c3ccc(Cl)cc3)cc2n1	-28	-58	10	-1.0	25	0.4	37	97*	-11	15
57	Cc1sc2ncnc(N3CCC(C(=O)Nc4nnc(SCc5ccccc5F)s4)CC3)c2c1C	3	13	2.3	-21	9	-0.2	7	5	4	-1
58	Cc1cc(N)n(-c2ccc3ccccc3c2)n1	.	.	.	-4.7	-29	-2.6	17	-20	0	5
59	Cc1cc2ccccn2c1C(C[N+](=O)[O-])c1ccc(N(C)C)cc1 (centres undefined)	.	.	.	-3.2	33	-0.3	3	20	10	4
60	CC(C(=O)Nc1ccccc1)N1CCN(C(=O)c2ccco2)CC1 (centres undefined)	6	13	-2.3	68*	.	-1.3	.	.	-4	1

# Remaining list, next part.
item	SMILES	Ecoli rRNA inh	Ecoli rRNA inh OD600	Ecoli rRNA inh RFP	LANA-H2A inh	T cruzi inh	Bfl-1 A1 inh	Calb FLC	ALR H2O2 inh	Beta2AR agonist	Beta apoptosis
61	O=C(Cc1coc(-c2ccc(F)cc2)n1)NC1CCCCC1	.	.	.	8.7	-10	0.4	-9	-2	-2	2
62	COc1ccc(N2CCN(C(=O)Cc3ccc(OC)c(OC)c3)CC2)cc1	-4	-10	1.8	-1.0	4	0.8	-3	88*	4	-1
63	O=C(COC(=O)c1ccccc1)Nc1cc(S(=O)(=O)N2CCCCCC2)ccc1Cl	.	.	.	1.1	.	0.8	.	.	3	-7
64	CCC(C(=O)NCCc1ccc(S(N)(=O)=O)cc1)c1ccccc1 (centres undefined)	14	9	0.1	0.5	-8	0.4	4	11	-7	-6
